# Screening data (PubChem BioAssay)
# MT1-MMP act inh: blocks activation of human MT1-MMP; hit rate 0.061% among 360,000; P50281; AID 651647; HT1080 RFP-PRO-GFP cells, GFP/RFP ratio fluorescence, overnight; percent of plate control window, DMSO zero; GFP/RFP ratio change, % at 20 µM;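 active = GFP/RFP ratio change of at least 30% with cell ATP level not reduced by more than half and red fluorescence within 50% of control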; note: strong numbers were not always called active
#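 Compound: 20 µM single dose, 1% DMSO / System: HT1080 RFP-PRO-GFP cells / Controls: DMSO and RFP-L50D-GFP cell wells / Read-out basis: GFP/RFP fluorescence ratio / Schedule: overnight compound exposure at 37 °C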
# HIV Env fusion: HIV envelope-mediated fusion inhibition | HeLa-JRFL Env/CEM21 cell fusion, luciferase | inhibition, % at 12.3 µM | hit rate 1.1% among 360,000 | AID 651610;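 active = mean replicate inhibition score of at least 50 and every replicate individually at or above 50; inconclusive = only one of the two criteria met; inactive = mean below 50 and not all replicates reaching 50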;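 note: 0% = plate neutral controls and 100% = maraviroc near 300 nM; one replicate is shown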
# MT1-MMP act inh RFP: further read-out of MT1-MMP act inh, marked with its call; RFP signal change, %; measured here: RFP expression control read;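 0 = vehicle wells; hits needed this value within 50% of zero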
# * marks the source's active call; other numbers are inactive results; ? = inconclusive; [ ] = another dose, or the depositor's remark. The list is partial, so the mix of outcomes need not match the whole.
# Second line of a record – MT1-MMP act inh	MT1-MMP act inh RFP	HIV Env fusion
1	Cc1ccc(S(=O)(=O)N2[C@H](CC(=O)c3cccs3)OC[C@@H]2C(C)C)cc1
 : -2	-4	-22
2	COC(=O)[C@@]1(Cc2ccc(F)cc2)[C@H]2c3cc(C(=O)N4CCCC4)n(CC4CC4)c3C[C@H]2CN1C(=O)c1ccccc1
 : -13	-21	-23
3	O=C(NCc1cccs1)C1C(=O)Nc2ccccc2C(=O)N1Cc1ccccc1 (stereo not given)
 : 3	4	14
4	CCNC(=O)c1cc2c(c(-c3cccc(-c4ccccc4F)c3)n1)[C@@H](CCO)N(C(=O)CC)C2
 : 1	4	2[16.7 µM]
5	Cc1cccc(C)c1NC(=O)C(c1ccccc1F)n1c(=O)c(-c2ccccc2)nc2ccccc21 (stereo not given)
 : -22	-22	-4
6	OCc1ccccc1-c1nc(NCC2CC2)nc2ccsc12
 : 2	2	-9
7	COc1ccc(CN2C(=O)c3ccccc3C2c2nnnn2-c2ccc3c(c2)OCCO3)cc1 (stereo not given)
 : 3	-1	-4
8	CCOC(=O)[C@]12CCCC=C1N(Cc1ccccc1)C(=O)[C@H](CC(=O)N1CCCCCC1)C2
 : -3	-1	-15
9	COc1cc(C2c3cc4c(cc3OC(N3CCCCC3)C2C)OCO4)cc(OC)c1O (stereo not given)
 : 2	-11	-5
10	CNC(=O)C[C@H]1C(=O)N(c2ccc(OC)cc2)C[C@@H]1C
 : 2	3	7
11	Cc1ccc(S(=O)(=O)N(C)C[C@@H]2OCc3ccccc3-c3c(n(C)c4ccccc34)C(=O)N([C@H](C)CO)C[C@@H]2C)cc1
 : -13	-12	95*
12	Cc1cccc(C)c1NC(=O)C(C1CC1)n1c(=O)c(-c2ccccc2)nc2ccccc21 (stereo not given)
 : -3	-5	-5
13	Cc1ccc(N2CCN(C3C(=O)Nc4ccccc4-n4nnnc43)CC2)cc1 (stereo not given)
 : -4	-4	-1
14	NC(c1csc(Nc2ncccn2)n1)c1ccccc1Cl (stereo not given)
 : -10	0	-1
15	COc1ccc(OC)c(CN2C(=O)CN(S(C)(=O)=O)CC2(C)C(=O)Nc2c(C)cccc2C)c1 (stereo not given)
 : 11	8	-23

# Limited to MT1-MMP act inh RFP (4 entries from above):
no. | molecule | MT1-MMP act inh RFP
12 | Cc1cccc(C)c1NC(=O)C(C1CC1)n1c(=O)c(-c2ccccc2)nc2ccccc21 (stereo not given) | -5
13 | Cc1ccc(N2CCN(C3C(=O)Nc4ccccc4-n4nnnc43)CC2)cc1 (stereo not given) | -4
14 | NC(c1csc(Nc2ncccn2)n1)c1ccccc1Cl (stereo not given) | 0
15 | COc1ccc(OC)c(CN2C(=O)CN(S(C)(=O)=O)CC2(C)C(=O)Nc2c(C)cccc2C)c1 (stereo not given) | 8

# Next section
# Second line of a record – MT1-MMP act inh	MT1-MMP act inh RFP	HIV Env fusion
16	CCC(CCNC(=O)c1ccccc1)(CCNC(=O)c1ccccc1)[N+](=O)[O-]
 : 3	-2	0
17	O=C1NC[C@H](CCCCN2CCN(CCc3ccc(O)cc3)C(=O)C2=O)N(CCC2CCCCC2)C1=O
 : 2	1	14
18	CCOC(=O)[C@]12CCC=C1N(Cc1cccc3ccccc13)C(=O)[C@H](CC(=O)NCc1cccs1)C2
 : -3	-6	-52
19	CC1(C(=O)NCc2cccc(C(F)(F)F)c2)CCN1Cc1ccc(-c2ccccc2)o1 (stereo not given)
 : -8	-14	?
20	CC[C@@H]1Cc2[nH]c(=O)[nH]c(=O)c2[C@H](c2ccc(Cl)cc2)O1
 : 3	2	-22
21	O=C(OC12CC3CC(CC(C3)C1)C2)c1ccc(NCc2cc(O)ccc2O)cc1
 : -32	-21	-28
22	COc1ccc(C2=Nc3ccccc3N(C(=O)Cc3cc(OC)cc(OC)c3)C2C(=O)NC(C)C)cc1 (stereo not given)
 : 2	2	-18
23	CC(C)(C)N(Cc1ccc2c(c1)OCO2)C(=O)/C=C\S(=O)c1ccccc1 (stereo not given)
 : 6	-18	41
24	O=c1[nH][nH]c2c1[C@H](C1CCCC1)O[C@H](CCc1ccccc1)C2
 : 1	-2	31
25	NS(=O)(=O)c1ccc(NC(=S)Nc2ccc(S(=O)(=O)Nc3nccs3)cc2)cc1
 : 0	3	18
26	O=C(O)C1C2CC(C(Br)C2Br)C1C(=O)O (stereo not given)
 : 2	0	5
27	CCOc1ccccc1C=NN1CCCCCC1
 : 4	6	-5
28	C[N+](C)(C)CCNC(=O)c1c[nH]c2ccccc12
 : 1	5	-4
29	CCOC(=O)[C@]12CCC=C1N(CCC1=CCCCC1)C(=O)[C@H](CC(=O)N1CCC(c3ccccc3)CC1)C2
 : 1	1	-110
30	Cc1ccc(S(=O)(=O)N2[C@@H](CO)CO[C@H]2CC(=O)c2cccs2)cc1
 : 0	-1	-4
31	CCOC(=O)[C@]12CCCC=C1N(Cc1ccccc1)C(=O)[C@H](CC(=O)NCc1ccc(OC)c(OC)c1)C2
 : 3	6	0
32	CCOC(=O)C1=NNC(C(=O)O)C1c1ccccc1 (stereo not given)
 : 0	5	-3
33	CN(C)C(=S)N=c1ssc(=S)n1Cc1ccco1
 : -7	2	-42
34	O=C1c2c(-c3ccc(Br)cc3)noc2CCN1Cc1cn(-c2ccc(Cl)cc2)nn1
 : 6	-18	-6
35	CC(=O)NCCc1ccc(-c2csc(NC(=O)C3CC(=O)N(C4CCCC4)C3)n2)cc1 (stereo not given)
 : 1	-9	-16
36	CC1(C)OC(=O)C2=C(C[C@@H](C3CC3)O[C@@H]2C2CC2)O1
 : -2	1	6
37	COc1cccc(CNC(=O)[C@@H]2CCCN2C(=O)OC(C)(C)C)c1
 : 2	4	17
38	CNc1ccc(C=C2C=Cc3ccccc32)cc1
 : -2	-7	-465
39	O=[N+]([O-])c1cccc(N=Nc2ccc(O)cc2O)c1
 : 13	-29	-6
40	CCN(CC)CCNC(=O)c1ccc(NC(=O)c2cccc(S(=O)(=O)N3CCc4ccccc43)c2)cc1
 : 3	0	5
41	Cc1nn(-c2ccc(F)cc2)c(Cl)c1/C=C(/CC(=O)O)c1nc2ccccc2s1
 : 2	4	11
42	CCOC(=O)[C@]12CCCC=C1N(Cc1ccco1)C(=O)[C@H](CC(=O)N1CCN(C(=O)C3CC3)CC1)C2
 : 6	9	-34
43	Nc1sc2c(c1C(=O)NCCc1ccccc1)CCCC2
 : 3	4	0
44	O=[N+]([O-])c1cccc(C=NN=Cc2ccccc2O)c1
 : 2	4	-56
45	Cc1ccccc1NC(=O)Cc1nc(COC(=O)CNC(=O)c2ccc(Cl)cc2Cl)cs1
 : -2	2	8
46	CC1(C)OC(=O)C2=C(C[C@@H](C3CCCC3)O[C@H]2CCc2cccc(Cl)c2)O1
 : -1	-9	6
47	COC[C@@H]1CCCN1c1ccc2c(c1)O[C@@H](COCc1ccccc1)CN([C@@H](C)c1ccccc1)S2(=O)=O
 : -1	-12	9
48	COCCOC(=O)c1c(C)oc2ccc(O)c(CN3CCC(C)CC3)c12 (tested in a mixture with another compound)
 : 5	5	-5
49	O=C1NC(=S)SC1=Cc1ccc(F)cc1
 : 8	-2	-2
50	CN(C)CCN1CCN(C2CN(Cc3cn(Cc4cccc(C(F)(F)F)c4)nn3)S(=O)(=O)C2)CC1 (stereo not given)
 : 0	3	16
51	C(COC1CC2CC1C1C2CC2OC21)OC1CC2CC1C1C2CC2OC21 (stereo not given)
 : 6	-7	8
52	Cc1ccc(NC(=O)CN(C)C(=O)c2ccccc2Cc2ccccc2)cc1
 : -2	-5	8
53	C[C@@H](c1ccccc1)N1C[C@H](COCc2ccccc2)Oc2cc(N3CCC[C@H]3C(N)=O)ccc2S1(=O)=O
 : 3	-2	26
54	COC(=O)[C@@]12C[C@@H](CC(=O)N3CCSCC3)C(=O)N(CCc3ccc(OC)c(OC)c3)C1=CCC(C)(C)C2
 : 2	6	?
55	Cc1ccccc1[C@H](NC1c2ccccc2C=Cc2ccccc21)P(=O)(c1ccccc1)c1ccccc1
 : -21	-14	86*
56	COc1cccc(-c2oc3c(c2-c2ccc(Br)nc2)C(O)CCC3)c1 (stereo not given)
 : 5	1	20
57	CCCC(C)(C)C(=O)N1CCC1(C)C(=O)NS(=O)(=O)c1ccccc1Cl (stereo not given)
 : 1	4	-4
58	CC1(C(=O)Nc2ccc3c(c2)OCCO3)CN(S(C)(=O)=O)CC(=O)N1CCc1ccccc1 (stereo not given)
 : 3	3	16
59	O=C1NC[C@@H](CCCCN2CCN(CC3CCCCC3)C(=O)C2=O)N(Cc2ccccc2)C1=O
 : 5	3	-41
60	CCCCCCn1cc(CN2CC(N3CCSCC3)CS2(=O)=O)nn1 (stereo not given)
 : 5	5	-8
61	CC1=NC(C)(C)CC2CCC(O)C12 (stereo not given)
 : 1	2	1
62	C(CCc1nn[nH]n1)CCC1CCCCC1
 : -3	0	19
63	Cc1ccccc1OC1(C)CCN(Cc2ccc(-c3ccccn3)cc2)C1 (stereo not given)
 : 9	3	46
64	CCOC(=O)[C@]12CCCC=C1N(Cc1ccc3c(c1)OCO3)C(=O)[C@H](CC(=O)NCc1ccc(C)o1)C2
 : -1	1	-4
65	Cc1nc(N)ncc1CCC1OCCO1
 : 0	3	7
66	Cc1cc2nc(-c3cccc(Cl)c3)c(Cc3cccc(Cl)c3)n2c(C)c1Br
 : 3	-3	1
67	CCCCCCCCN1C(=O)[C@H](CC(=O)NCc2ccc(C)o2)C[C@@]2(C(=O)OCC)CCC=C12
 : -3	-10	-8
68	CC(C)C[C@H]1CNC(=O)C(=O)N1C[C@@H]1CCCN1C[C@H](CC(C)C)N1C[C@H](Cc2ccccc2)N(CCc2ccccc2)C(=O)C1=O
 : -5	-4	-62
69	CC(C)C[C@@H](CN1CCC[C@H]1CN1C(=O)C(=O)NC[C@@H]1Cc1ccccc1)N1C[C@H](Cc2ccc(O)cc2)N(CCc2ccccc2)C(=O)C1=O
 : 0	0	-113
70	Cn1cccc1C(=O)OCC(=O)c1ccc(Br)s1
 : 0	-5	-22
71	O=C1C(=C(I)I)c2ccccc2-c2ccccc21
 : -28	-26	43
72	Cc1cccc(C)c1NC(=O)C(c1ccnc2ccccc12)n1c(=O)c(-c2ccccc2)nc2ccccc21 (stereo not given)
 : -6	-15	-20
73	COc1ccc(C2C3=C(COC3=O)Oc3cc4c(cc32)OCO4)cc1OC (stereo not given)
 : 13	-1	-2
74	CC(C)(C)NC(=O)C(c1ccncc1)n1c(=O)c(-c2cc3ccccc3[nH]2)nc2ccccc21 (stereo not given)
 : -10	-8	58*
75	COc1ccc(C=NNC(=O)CCCC(=O)NN=Cc2ccc(OC)c(OC)c2)cc1OC
 : 2	6	-7
76	Nc1cc2c(cc1Br)-c1c(C(=O)O)cccc1C2O (stereo not given)
 : 3	5	3

# An excerpt from above in order of their number in MT1-MMP act inh, rising:
# Second line of a record – MT1-MMP act inh	MT1-MMP act inh RFP	HIV Env fusion
71	O=C1C(=C(I)I)c2ccccc2-c2ccccc21
 : -28	-26	43
74	CC(C)(C)NC(=O)C(c1ccncc1)n1c(=O)c(-c2cc3ccccc3[nH]2)nc2ccccc21 (stereo not given)
 : -10	-8	58*
68	CC(C)C[C@H]1CNC(=O)C(=O)N1C[C@@H]1CCCN1C[C@H](CC(C)C)N1C[C@H](Cc2ccccc2)N(CCc2ccccc2)C(=O)C1=O
 : -5	-4	-62
62	C(CCc1nn[nH]n1)CCC1CCCCC1
 : -3	0	19
65	Cc1nc(N)ncc1CCC1OCCO1
 : 0	3	7
75	COc1ccc(C=NNC(=O)CCCC(=O)NN=Cc2ccc(OC)c(OC)c2)cc1OC
 : 2	6	-7
66	Cc1cc2nc(-c3cccc(Cl)c3)c(Cc3cccc(Cl)c3)n2c(C)c1Br
 : 3	-3	1
